YopH PTP inh: YopH tyrosine phosphatase inhibitors, primary screen, biochemical, fluorescence Ex485/Em525; inhibition, %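 (about 10 µM by stock and volumes)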; 0.16% of 140,000 active;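 active = inhibition of 50% or more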;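 also: controls were vehicle for no effect and minimum signal wells for full effect; inactives centre near -20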
Mtb betalactam: beta-lactam sensitization of Mtb H37Rv, H37Rv; M. tuberculosis H37Rv growth with meropenem, percent inhibition; hits of this screen are not shown here; inhibition, % at 25 µM; 0.27% of 330,000 active; AID 434955, 2010;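 active = about 74% or more and at least 40 points above the plate without the antibiotic, then above 30% in a dose series; inconclusive = first-round hits that could not be retested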;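 also: growth measured after seven days incubation then overnight dye step; 0% = bacteria only wells and 100% = bacteria with antibiotic; twin plates without the antibiotic show which effects depend on it; some results filed as inactive read as strong as hits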
Mtb growth: M. tuberculosis H37Rv growth inhibitors, H37Rv strain (AID 1626). inhibition, % at 10 µM; hits with a dose series show IC50 in µM. 0.95% of 220,000 active. M. tuberculosis H37Rv growth inhibition; higher % means a stronger effect;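 active = confirmed in a dose series; inconclusive = inhibition above 80% but not taken into the dose series; inactive = below 80% or under 30% at every dose of the series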;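 also: bacteria incubated seven days before Alamar blue readout; 0% = bacteria only wells and 100% = bacteria with antibiotic wells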
Arbovirus anti: antivirals against arbovirus infection, primary screen, cell-based, full library, 10K replicate subset; arbovirus infection cell-based antiviral screen; inhibition, % at 10 µM; 0.37% of 200,000 active; AID 1251, 2008;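 active = inhibition from about 30%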;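 also: bluetongue infection of BSR cells; cell survival read as ATP light after 72 h; 0% = infected wells without compound and 100% = uninfected wells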
RecA intein inh: Mtb RecA intein splicing inhibitors, primary screen, biochemical, fluorescence, HTS. 0.75% of 290,000 active. cell-free RecA intein splicing. AID 2221, 2009. inhibition, %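 (about 9 µM by stock and volumes)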; in the data active = inhibition above about 30%; inconclusive = no clear call, values can overlap the other calls;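 also: 0% = vehicle wells and 100% = reference inhibitor control wells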
Target sequence (P9WHJ3 whole entry, looked up): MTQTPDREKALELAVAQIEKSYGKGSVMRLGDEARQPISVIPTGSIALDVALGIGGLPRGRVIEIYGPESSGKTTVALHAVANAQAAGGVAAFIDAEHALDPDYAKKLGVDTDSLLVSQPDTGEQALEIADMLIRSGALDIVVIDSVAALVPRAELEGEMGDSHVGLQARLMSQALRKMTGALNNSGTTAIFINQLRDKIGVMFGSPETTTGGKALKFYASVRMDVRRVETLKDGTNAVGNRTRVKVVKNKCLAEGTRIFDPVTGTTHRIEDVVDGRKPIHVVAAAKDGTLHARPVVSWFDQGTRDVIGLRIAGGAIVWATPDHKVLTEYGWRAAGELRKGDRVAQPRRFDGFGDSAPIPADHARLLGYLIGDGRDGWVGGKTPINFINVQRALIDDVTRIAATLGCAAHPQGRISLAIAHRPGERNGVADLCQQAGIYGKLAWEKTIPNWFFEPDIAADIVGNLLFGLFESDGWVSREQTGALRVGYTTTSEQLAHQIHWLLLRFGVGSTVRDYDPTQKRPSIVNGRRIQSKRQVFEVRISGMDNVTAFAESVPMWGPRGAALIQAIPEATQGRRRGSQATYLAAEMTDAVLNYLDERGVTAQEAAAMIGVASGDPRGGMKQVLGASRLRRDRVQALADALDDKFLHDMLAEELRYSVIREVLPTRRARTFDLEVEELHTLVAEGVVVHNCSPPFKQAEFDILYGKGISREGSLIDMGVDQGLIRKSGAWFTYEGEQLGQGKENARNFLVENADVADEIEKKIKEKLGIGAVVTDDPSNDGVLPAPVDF
Arbovirus anti repeat: second read-out of Arbovirus anti, no call of its own (marks repeat the call); inhibition, %; measured here: 10K subset replicate screen; many hits read low in the repeat;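 first of two repeat runs on a subset; 0% = infected and 100% = uninfected wells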
Numbers without * were called inactive; u = inconclusive; x = not tested or not shown. Not all compounds are listed; rates above refer to the full screens.

SMILES | YopH PTP inh | Mtb betalactam | Mtb growth | Arbovirus anti | RecA intein inh | others
CCOC(=O)CCN=Cc1c(O)n(-c2ccc(Br)cc2)c(=O)[nH]c1=O | -42 | -11 | -5% | 7 | -0.4
OC1(c2cn(Cc3ccccc3)nn2)CCCCC1 | -1 | -11 | 0% | 1 | 14
O=C(COc1ccc(Cl)cc1Cl)NCCCCc1ccccc1 | -47 | 0 | -3% | -4 | 3.2
CCCCCC(=O)Nc1nc2ccccc2[nH]1 | -41 | 75 | -10% | -12 | -4.6
C=CCNC(=O)c1ccc(-n2cccc2)cc1 | x | -1 | 9% | 0 | -0.8
N/C(=N\OC(=O)CCC1CCCCC1)c1ccc([N+](=O)[O-])cc1 | -22 | -7 | x | 15 | 4.5
CC1=Nc2cc(C(=O)O)ccc2Sc2c(C)ccc(C)c21 | x | -3 | -6% | 25 | 6.4
CNC(=S)N/N=C/c1c2ccccc2c(Cl)c2ccccc12 | x | 5 | x | x | 9.2
O=C(CCSc1ccccc1)Nc1nnc(-c2cccs2)o1 | x | 94 | x | 3 | 1.4
COCc1cc(C)nc(SCc2ccc(Cl)cc2)c1C#N | x | 0 | x | x | -2.3
N#CCSc1nc2c(sc(=S)n2Cc2ccco2)c(=O)n1-c1ccc(F)cc1 | -20 | 64 | 23% | 10 | 15
CCOCCOC(=O)Cn1cnc2scc(-c3ccc(C)cc3)c2c1=O | x | 4 | x | x | 1.8
Cc1ccccc1NC(=O)CCCCC(=O)Nc1ccccc1C | x | 2 | x | x | -3.4
CCCCCn1c(=O)[nH]c2cc(C(=O)NCCN3CCCCC3C)ccc2c1=O (stereo not given) | x | -9 | x | x | -1.2
Cc1oc(-c2ccccc2F)nc1CS(=O)(=O)CC(=O)NCCN1CCCC1 | x | 1 | x | x | -1.1
c1ccc(-n2cc(CN3CCCC(CN4CCCC4)C3)c(-c3ccc4c(c3)OCO4)n2)cc1 (stereo not given) | x | 14 | 8% | -36 | 4.7
CCC(C)(C(=O)NC1CCCCC1)N(CC1CCCO1)C(=O)CNC(=O)c1ccccc1 (stereo not given) | -12 | u | -9% | 3 | 0.7
O=C(Nc1cnn(Cc2ccc(Cl)cc2Cl)c1)c1noc2c1CCCC2 | -25 | -2 | 22% | -19 | x | Arbovirus anti repeat=-6
CCNc1nc(N)nc(-c2cc(Cl)ccc2O)n1 | -18 | 2 | 16% | -13 | -2.8
CN1CCCC1=Nc1c2c(nc3ccccc13)N(C)CC2 | -37 | 5 | -6% | -2 | 0.8
COc1cc(/C=C/C(=O)c2ccc(Cl)s2)cc(OC)c1O | -14 | 79 | 9% | -38 | -4.4
O=C(CCCCCN1C(=O)c2ccccc2C1=O)Nc1cccc(O)c1 | x | 7 | x | x | 2.4
Cc1cc(OCC(=O)Nc2ccncc2)ccc1[N+](=O)[O-] | x | -8 | -2% | 5 | 0.4
COc1ccccc1CN1CCN(C(CC(C)C)c2nnnn2Cc2cccs2)CC1 (stereo not given) | x | -2 | -5% | 0 | 1.0
CCn1c(SCC(=O)NC2CCCCC2)nnc1-c1ccccn1 | x | -10 | x | x | -0.4
CCc1c(C)c(C#N)c2nc3ccccc3n2c1NCCN(C)C | -4 | u | -1% | 11 | -55
Nc1cccnc1Oc1ccccc1F | x | 8 | -8% | x | -0.5
COc1cccc(NC(=S)NCCC(c2ccccc2)c2ccccc2)c1 | -23 | -17 | 9% | -44 | 16
CCN(CC)CCn1c(=S)[nH]c2cc(C(=O)N3CC=C(c4ccccc4)CC3)ccc2c1=O | x | 17 | -5% | -4 | x
Cn1c(-c2ccc(F)cc2)cnc1NCc1cc2c(cc1[N+](=O)[O-])OCO2 | -1 | -8 | 11% | -8 | -2.7
CSc1ccccc1C(=O)Nc1cccc(N(C)S(C)(=O)=O)c1 | -32 | -2 | -7% | 5 | 0.1
COc1ccc(-n2nnnc2/C(=C/N(C)C)C(=O)c2ccccc2)cc1 | x | 1 | -8% | x | -11
CCOC(=O)c1c(C)nc2ccccc2c1-c1ccccc1 | -8 | 7 | x | -4 | 5.4
O=C(/C=C/c1ccco1)NC(=S)Nc1ccc(N2CCOCC2)c(Cl)c1 | -36 | -6 | 9% | -19 | -3.8
CCOc1ccc(Br)cc1CC(=O)O | -20 | -1 | 2% | 0 | 0.9
COc1ccc(CC(=O)Nc2cc(C)on2)cc1OC | -2 | -6 | x | -2 | -1.5
Cc1nnc(SCC(=O)Nc2ccc(Br)cn2)[nH]c1=O | 22 | 0 | -6% | 13 | -2.1
CCN1C(=O)C(CC(=O)Nc2ccc(OC)cc2)N(Cc2ccco2)C1=S (stereo not given) | -4 | 5 | 0% | -2 | 4.4
CCC(C)c1nc2ccsc2c(N2CCOC2=O)c1-c1ccccc1 (stereo not given) | x | -9 | 0% | x | 1.0
CCOc1ccc(OCCC(=O)OCC(=O)N2CCN(S(=O)(=O)c3ccc(C)cc3)CC2)cc1 | x | 0 | x | x | -4.5

Some of these compounds in order of number of heavy atoms, ascending:
SMILES | YopH PTP inh | Mtb betalactam | Mtb growth | Arbovirus anti | RecA intein inh | others
CCOc1ccc(Br)cc1CC(=O)O | -20 | -1 | 2% | 0 | 0.9
Nc1cccnc1Oc1ccccc1F | x | 8 | -8% | x | -0.5
CCNc1nc(N)nc(-c2cc(Cl)ccc2O)n1 | -18 | 2 | 16% | -13 | -2.8
COc1ccc(CC(=O)Nc2cc(C)on2)cc1OC | -2 | -6 | x | -2 | -1.5
COc1cc(/C=C/C(=O)c2ccc(Cl)s2)cc(OC)c1O | -14 | 79 | 9% | -38 | -4.4
CCOC(=O)c1c(C)nc2ccccc2c1-c1ccccc1 | -8 | 7 | x | -4 | 5.4
CSc1ccccc1C(=O)Nc1cccc(N(C)S(C)(=O)=O)c1 | -32 | -2 | -7% | 5 | 0.1
CCc1c(C)c(C#N)c2nc3ccccc3n2c1NCCN(C)C | -4 | u | -1% | 11 | -55
CCC(C)c1nc2ccsc2c(N2CCOC2=O)c1-c1ccccc1 (stereo not given) | x | -9 | 0% | x | 1.0
O=C(CCCCCN1C(=O)c2ccccc2C1=O)Nc1cccc(O)c1 | x | 7 | x | x | 2.4
COc1cccc(NC(=S)NCCC(c2ccccc2)c2ccccc2)c1 | -23 | -17 | 9% | -44 | 16
COc1ccccc1CN1CCN(C(CC(C)C)c2nnnn2Cc2cccs2)CC1 (stereo not given) | x | -2 | -5% | 0 | 1.0
CCN(CC)CCn1c(=S)[nH]c2cc(C(=O)N3CC=C(c4ccccc4)CC3)ccc2c1=O | x | 17 | -5% | -4 | x
CCOc1ccc(OCCC(=O)OCC(=O)N2CCN(S(=O)(=O)c3ccc(C)cc3)CC2)cc1 | x | 0 | x | x | -4.5

The results go on.
SMILES | YopH PTP inh | Mtb betalactam | Mtb growth | Arbovirus anti | RecA intein inh | others
Clc1cc(CSc2ccccc2)nc(-c2ccccc2)n1 | -40 | 2 | -8% | -7 | -0.7
COc1ccc(CNC/C=C/c2ccccc2)cc1 | x | 3 | x | x | 0.2
COc1ccc(C2c3sc(=O)[nH]c3SCC2C(N)=O)cc1 (stereo not given) | x | 1 | -5% | x | 1.7
Cc1ccc(S(=O)(=O)NCCNS(=O)(=O)c2ccc(C)cc2)cc1 | x | -5 | x | x | -2.3
Clc1ccc(-c2nn3c(C4COc5ccccc5O4)nnc3s2)cc1 (stereo not given) | -32 | -9 | -4% | -1 | -0.4
COc1ccc2c(c1OC)C(=O)OC2CC(=O)c1ccc(N(C)C)cc1 (stereo not given) | -18 | -2 | -9% | 4 | -4.9
O=C(COC(=O)[C@H](Cc1ccccc1)NS(=O)(=O)c1ccccc1F)NC1CCCCC1 | -16 | 6 | 1% | 18 | 1.3
CC(=O)N1CCN(c2ccc(NC(=O)c3ccc4ccccc4c3)cc2)CC1 | x | 10 | x | x | 10
CC1CCC/C=C/C(=O)c2c(O)cc(O)cc2CC(=O)O1 (stereo not given) | x | 77 | 13% | x | -0.7
Cc1cc(S(=O)(=O)NCc2ccccn2)c(Cl)cc1Cl | x | -27 | x | x | 1.7
COc1ccc(C(=O)Cn2c(=O)c(CCC(=O)O)nn3c4ccccc4nc23)cc1OC | -27 | -8 | -7% | 2 | -1.1
C/C(=N\NC(=O)c1cccc(Br)c1)c1ccccn1 | x | 99 | x | x | -2.9
CCN1CCCC1CNC(=O)CN(C)S(=O)(=O)c1ccc(Cl)cc1 (stereo not given) | x | -4 | x | x | 0.5
CC1CCCCN1C(=O)Cn1cc(C#N)c2ccccc21 (stereo not given) | -3 | 1 | 0% | 8 | -1.1
COc1cccc(NC(=O)CN(C)C(=O)c2cn(-c3ccccc3)nc2-c2cccs2)c1 | x | -2 | x | x | 9.3
Cc1ccc(N2C(=O)C3C4C=CC(CNC(=S)N5CCN(c6ccccn6)CC5)(O4)C3C2=O)cc1 (stereo not given) | x | -8 | -2% | 2 | -0.3
Cc1cccc(NS(=O)(=O)c2ccc3c(c2)CCN3C(=O)CCC(=O)O)c1 | x | -2 | x | x | 0.2
COC(CNS(=O)(=O)c1ccc(Cl)cc1)c1ccccc1 (stereo not given) | x | -1 | x | x | -0.8
Cc1ccc(C(=O)NNC(=S)Nc2cccc3ccccc23)s1 | -43 | 59 | 4% | -1 | 9.9
Cc1ccc(NC(=O)C2CC(=O)N(c3ccc4c(c3)OCCO4)C2)cc1S(=O)(=O)N(C)C (stereo not given) | x | -5 | x | x | 0.6
CN(C)C(=O)CSc1nnc(-c2cccs2)n1-c1ccccc1 | x | -12 | x | x | -0.7
COc1nc(OC)nc(N(C)CCO)n1 | -16 | -1 | 1% | 0 | 1.1
O=c1c2ccccc2cnn1Cc1n[nH]c(=S)n1-c1ccc(Cl)cc1Cl | -31 | -5 | -5% | 4 | -1.4
CCCCCCNC(=O)c1cc(S(=O)(=O)N2CCc3ccccc32)ccc1F | x | -9 | x | x | 0.1
CC1CCN(c2ccc(NC(=O)c3ccc([N+](=O)[O-])o3)cc2)CC1 | x | 100 | x | x | 4.5
CCC(=O)Nc1cccc(NC(=S)NC(=O)c2ccccc2C)c1 | x | 0 | 3% | 9 | 1.3
Cc1nonc1-c1csc(N)n1 | x | -7 | -4% | 6 | -2.9
CC(=O)c1ccc(S(=O)(=O)N2CCN(C(=O)/C=C/c3ccc4ccccc4n3)CC2)cc1 | x | 1 | 5% | x | x
C/C=C/c1ccc(OCCOc2cc(C=O)ccc2OC)c(OC)c1 | -32 | 41 | 6% | 28 | 1.6
COc1ccccc1NC(=O)c1cccc2c(Br)cccc12 | x | 96 | x | x | 1.7
COc1ccc(-n2c(SCC(=O)Nc3ccc(C(N)=O)cc3)nc3c([nH]c4ccccc43)c2=O)cc1OC | x | 8 | x | x | -1.7
Clc1ccc(-c2cc(C3CCNCC3)[nH]n2)cc1 | x | -5 | 0% | -28 | -5.2
O=C(c1cc(-c2ccncc2)nc2ccc(Br)cc12)N1CCN(Cc2ccc3c(c2)OCO3)CC1 | x | -2 | 7% | -12 | 1.4
Cc1cccc(C(=O)O/N=C(\N)c2cccc([N+](=O)[O-])c2)c1 | 13 | 98 | u | 7 | 0.6
O=C(CCN1CCCCC1)c1ccccc1 | -18 | 79 | -2% | 3 | -0.7
COC(=O)c1ccccc1NC(=O)CN(c1ccc(OC)cc1)S(C)(=O)=O | -13 | 1 | 5% | -18 | 1.5
Cc1ccc(C)c(N2CCN(S(=O)(=O)c3ccc4c(c3)oc(=O)n4C)CC2)c1 | -25 | -1 | 2% | 1 | 1.0

Bioassay records from PubChem.
